Bfl-1 A1 inh = inhibitors of the anti-apoptotic protein A1, read as caspase activation; MEF A1-2A-BIM cells, Caspase-Glo 3/7 luminescence, 3 h; percent of clofoctol response, vehicle zero; caspase activation, % (concentration not given with the values); hit rate 0.066% among 330,000;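 active = over half of replicate activation scores above 10%, or exactly half above 10 with the replicate mean above 10; inconclusive = replicate mean below 10 yet half the replicates above 10; inactive = over half of replicates below 10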;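 note: wells of about 30 µL received 50 nL stock; many hits fall short of the cut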
Calb FLC = affects C. albicans growth with fluconazole | C. albicans CaCi-2 (fluconazole-resistant clinical isolate) + fluconazole, Alamar Blue growth, 48 h | growth inhibition, % (test concentration not listed) | hit rate 0.57% among 300,000;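 active = most replicates above 75%; inconclusive = exactly half above 75%; inactive = most below 75%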;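 note: all wells also contain fluconazole at 8 µg/ml as a sub-toxic cotreatment; 0% = median of DMSO wells and 100% = median of geldanamycin control wells; wells of about 8 µL received 7.5 nL stock; the first replicate is given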
ALR H2O2 inh = human ALR oxidase inhibition via reduced H2O2 | P55789 | hit rate 3.8% among 290,000 | purified ALR, DTT oxidation, H2O2 HRP-luminol luminescence | inhibition, % (concentration not given with the values);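 active = mean and each replicate at 75% or more; inconclusive = only one of the two met; inactive = neither met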;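 note: stock transfer was 7.5 nL into about 7.5 µL; 0% = neutral wells and 100% = wells with inactivated enzyme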
Ecoli rRNA inh = inhibits bacterial ribosomal RNA function over humanized ribosomes; hit rate 1.6% among 350,000; AID 720706; GFP signal change (wild-type ribosome), % (concentration not given with the values); E. coli WT GFP vs humanized-ribosome RFP mutants, fluorescence, 24 h; stronger effect = lower value; DMSO median 0, no signal -100;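 active = significant combined selectivity score with lowered wild-type GFP, culture density cut under 30%, mutant RFP and density less affected; inactive = any of these conditions unmet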; note: one replicate is shown; some compounds called inactive have numbers as strong as hits
T cruzi inh = blocks replication of Trypanosoma cruzi. T. cruzi beta-gal in NIH3T3, luminescence, 90 h. inhibition, % (no concentration beside the values). hit rate 1.4% among 300,000;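 active = mean inhibition across valid replicates above about 55%, limit read from the data; inconclusive = mean below that limit but half or more replicates reach it; inactive = mean below it, under half of replicates reach it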;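 note: signal also drops with host cell toxicity which is not excluded here; 0% = plate median of DMSO wells and 100% = zero luminescence signal; higher percent means less beta-gal luminescence so fewer parasites; stock transfer was 50 nL into about 50 µL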
Beta apoptosis = beta cell apoptosis inhibition; INS-1E cytokine-induced death, ATP luminescence, 48 h; percent of positive-control rescue, neutral wells zero; protection from apoptosis, % (test concentration not listed); hit rate 0.8% among 300,000; AID 435005;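 active = all replicates at 75% or more, or half of them and the mean; inconclusive = half reach 75% but not the mean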;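 note: 0% = cytokine-treated negative control wells and 100% = positive control rescue; higher means more ATP so stronger rescue from cytokine killing; wells of about 40 µL received 100 nL stock; the first replicate is given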
Beta2AR agonist = agonists of human beta-2 adrenergic receptor inducing internalization | P07550 | Am2.2-beta2AR cells, FAP receptor internalization, flow cytometry; reference of the scale not given here | response, % (concentration not given with the values) | hit rate 0.43% among 340,000 | AID 504454;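 active = response above a set limit, near 3 SD of response in nonfluorescent compounds, cut at about 42% in these data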;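 note: stock transfer was 100 nL into about 11 µL; a reference agonist was the positive control; negative values mostly stem from fluorescent compounds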
LANA-H2B inh = blocks KSHV LANA binding to histone H2A/H2B. cell-free LANA-H2A/H2B peptide, fluorescence polarization. inhibition, % (test concentration not listed). hit rate 0.6% among 320,000. AID 2629; in the data active = inhibition mostly above about 10%, no sharp cut-off; inactive = mostly below about 6.7%;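 note: stock transfer was 7.5 nL into about 10 µL; 0% = median of vehicle wells and 100% = median of positive control wells; one replicate is shown; the record names a cut of 25% in any replicate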
Target sequence (Q9QR71 whole entry, looked up): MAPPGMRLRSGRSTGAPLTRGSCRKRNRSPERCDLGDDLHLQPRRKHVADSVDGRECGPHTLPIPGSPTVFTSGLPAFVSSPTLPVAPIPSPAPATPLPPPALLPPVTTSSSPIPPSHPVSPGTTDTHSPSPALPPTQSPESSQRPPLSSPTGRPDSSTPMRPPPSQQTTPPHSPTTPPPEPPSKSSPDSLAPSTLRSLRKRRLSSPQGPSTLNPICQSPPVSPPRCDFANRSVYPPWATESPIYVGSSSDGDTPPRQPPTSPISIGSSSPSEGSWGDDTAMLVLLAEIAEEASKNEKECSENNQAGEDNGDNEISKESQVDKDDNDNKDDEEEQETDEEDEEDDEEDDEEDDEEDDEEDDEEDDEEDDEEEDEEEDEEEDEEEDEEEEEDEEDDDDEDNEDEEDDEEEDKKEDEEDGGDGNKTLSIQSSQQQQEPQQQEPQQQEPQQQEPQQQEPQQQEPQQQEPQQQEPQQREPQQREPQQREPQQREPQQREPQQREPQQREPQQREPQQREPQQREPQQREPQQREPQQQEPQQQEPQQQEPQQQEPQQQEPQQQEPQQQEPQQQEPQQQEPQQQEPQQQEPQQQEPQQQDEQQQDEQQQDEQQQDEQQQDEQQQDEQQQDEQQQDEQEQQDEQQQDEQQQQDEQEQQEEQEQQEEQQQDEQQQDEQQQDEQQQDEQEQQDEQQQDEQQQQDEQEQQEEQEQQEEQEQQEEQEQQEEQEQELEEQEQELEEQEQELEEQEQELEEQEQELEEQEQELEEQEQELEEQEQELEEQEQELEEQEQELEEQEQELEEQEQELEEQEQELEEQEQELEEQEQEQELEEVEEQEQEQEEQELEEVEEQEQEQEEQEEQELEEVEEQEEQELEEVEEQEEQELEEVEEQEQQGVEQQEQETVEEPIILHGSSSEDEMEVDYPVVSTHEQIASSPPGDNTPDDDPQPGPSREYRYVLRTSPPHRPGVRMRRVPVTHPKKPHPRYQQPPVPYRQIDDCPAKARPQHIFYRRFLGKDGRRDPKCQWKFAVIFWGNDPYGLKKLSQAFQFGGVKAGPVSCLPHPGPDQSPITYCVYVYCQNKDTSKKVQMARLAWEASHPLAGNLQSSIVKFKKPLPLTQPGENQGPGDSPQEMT
Ecoli rRNA inh OD600 = second read-out of Ecoli rRNA inh, no call of its own (marks repeat the call); OD600 change, %; measured here: OD600 growth;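 optical density of the mix in the first replicate; 0 = DMSO median and -100 = no signal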
Ecoli rRNA inh RFP = also measured in Ecoli rRNA inh; calls as there; RFP signal change, %; measured here: RFP humanized mutant strains;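 first replicate; 0 = DMSO median and -100 = no signal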
Numbers without * were called inactive; ? = inconclusive; / = no result given; & = joins results of further samples. Some of the compounds tested; the hit share may differ from the screen's.

Every second line gives: ALR H2O2 inh | Calb FLC | Ecoli rRNA inh OD600 | Bfl-1 A1 inh | Ecoli rRNA inh RFP | Beta2AR agonist | T cruzi inh | Ecoli rRNA inh | Beta apoptosis | LANA-H2B inh
1. CCCCCCn1c(O)c(/C=N/N2CCCCCC2)c(=O)[nH]c1=O
→ / | 4.0 | / | -0.3 | / | -2.5 | -7.9 | / | 0.1 | 2.9
2. CN1C(=O)C(=Cc2ccccc2OCCOc2ccc([N+](=O)[O-])cc2)C(=O)N(C)C1=O
→ 21.9 | ? | 8.5 | 0.8 | 4.4 | -5.5 | -25.4 | 10.8 | / | -3.1
3. C=C(c1ccccc1)P(=O)(O)O
→ 1.2 | -2.9 | / | 0.3 | / | 0.5 | -6.0 | / | -1.6 | 1.2
4. O=c1[nH]c(=O)n(Cc2ccc(F)cc2)c(O)c1C=NCCCO
→ -11.7 | 30.5 | / | / | / | -0.5 | -21.0 | / | 0.5 | -2.6
5. O=P(Oc1ccccc1)(Oc1ccccc1)C(O)c1ccccc1 (configuration not stated)
→ / | -1.1 | 1.4 | -0.2 | 0.0 | 6.0 | 5.2 | 7.7 | -5.0 | -0.2
6. O=C1NC(=O)N(c2ccc3c(c2)OCO3)C(=O)/C1=C\c1ccsc1
→ 37.3 | -2.6 | 9.8 | 0.6 | 3.7 | -3.8 | -0.7 | 11.9 | -3.9 | 2.7
7. C=CCn1c(O)c(/C=N/NC(=O)CCCC)c(=O)[nH]c1=S
→ 90.0* | -2.3 | 7.7 | 0.9 | -1.5 | 0.5 | -16.6 | 8.2 | -4.0 | -0.1
8. CCC(=O)N1c2ccc(S(=O)(=O)CCC(=O)N3CCC4(CC3)OCCO4)cc2CC1C (configuration not stated)
→ -0.7 | -6.8 | / | -1.0 | / | -3.0 | -10.1 | / | -1.6 | 2.6
9. S=P(Nn1cnnc1)(c1ccccc1)c1ccccc1
→ 1.4 | 9.4 | -7.6 | -0.3 | -1.7 | -6.5 | -0.6 | 0.8 | 9.2 | -7.1
10. O=c1[nH]c(=S)n(-c2ccccc2)c(O)c1C=NCc1ccccn1
→ / | 3.9 | 11.3 | 1.5 | 2.3 | 2.0 | -2.3 | 16.9 | -7.7 | 0.5
11. Cc1ccc(C2=NCC(=O)Nc3ccc(Br)cc32)cc1
→ -2.1 | 9.7 | -19.4 | 0.5 | -7.9 | -11.5 | 10.7 | -16.9 | 3.4 | 0.0
12. CCN1CCN(c2cc(N3CCCC3)c([N+](=O)[O-])cc2F)CC1
→ -6.1 | -13.5 | 6.8 | 0.3 | -3.0 | -3.4 | 27.6 | -5.2 | -1.1 | 2.6
13. CCN1C(=O)NC(=O)/C(=C\c2cn(CC(=O)N3CCCCC3C)c3ccccc23)C1=O (configuration not stated)
→ 35.8 | -5.0 | / | 1.4 | / | 12.8 | -16.4 | / | 8.5 | 33.3*
14. O=P(C(c1c[nH]c2ccccc12)N1CCOCC1)(N1CCOCC1)N1CCOCC1 (configuration not stated)
→ -0.4 | 4.0 | / | ? | / | -2.8 | 3.1 | / | -7.5 | 1.5
15. O=[N+]([O-])c1ccc(N2CCNCC2)cc1NCc1ccco1
→ / | -12.9 | -38.1 | -0.2 | -16.0 | -0.6 | 4.8 | -13.8 | -3.2 | -1.0
16. C=Cn1ccnc1P(=S)(c1nccn1C=C)c1nccn1C=C
→ -8.8 | -5.0 | / | 0.3 | / | -2.9 | -28.2 | / | -0.5 | 1.7
17. CCCCn1c(=O)c(C(=O)Nc2cccc(C)c2)c(O)c2ccccc21
→ 0.8 | -2.6 | 17.8 | 0.5 | 0.5 | -6.7 | -0.1 | 14.6 | / | -2.0
18. OCC(Cl)CCl (configuration not stated)
→ -6.0 | / | 0.0 | 0.3 | -0.5 | -9.0 | / | 1.4 | 0.1 | -3.0
19. COC(=O)C1=C(c2ccc(C(C)=O)cc2)C[C@@H]2CC[C@H]1N2C(=O)N1CCC(O)CC1
→ 4.8 | / | 27.7 | -0.2 | -4.8 | 11.1 | / | 22.0 | -4.3 | 1.3
20. CC(=NCc1ccco1)c1c(O)n(Cc2ccccc2)c(=O)[nH]c1=O
→ -4.7 | 7.3 | / | 0.1 | / | -6.1 | -6.7 | / | 3.5 | -3.5
21. O=C(O)CN1C(=O)CN=C(c2ccccn2)c2cc(Cl)ccc21
→ 2.4 | -1.7 | 7.6 | 1.1 | -0.6 | 7.9 | -9.9 | 12.5 | -2.2 | 3.6
22. CCN(CC)c1ccc(N=Cc2c(O)n(Cc3ccco3)c(=O)[nH]c2=O)cc1
→ 5.1 | 26.4 | 4.9 | -0.5 | 2.2 | 3.9 | / | -0.5 | -2.4 | 8.1
23. O=C1NC(=O)C(CCc2ccccn2)(Cc2cccc(Cl)c2Cl)C(=O)N1c1ccc(Br)cc1 (configuration not stated)
→ -3.6 | 45.6 | 15.2 | -0.5 | 8.1 | 51.1* | -9.2 | 18.2 | -2.8 | -5.3
24. Oc1ccc2c3c1OC1C(O)CC[C@@]4(O)[C@@H](C2)N(CC2CCC2)CC[C@]314 (some centres not stated)
→ 41.8 | -5.4 | / | -0.1 | / | / | -9.3 | / | -8.2 | -3.7
25. C=C1C(=O)O[C@H]2[C@H]1[C@H](OC(=O)CC(=O)O[C@@H]1C[C@@H](C)[C@@H]3C=CC(=O)[C@@]3(C)[C@H]3OC(=O)C(=C)[C@H]13)C[C@@H](C)[C@H]1C=CC(=O)[C@]12C
→ 14.8 | 2.4 | 9.1 | 0.0 | 4.0 | 11.7 | -26.6 | 11.5 | 42.6 | -0.6
26. COC(=O)C1=C(c2ccc(S(C)(=O)=O)cc2)C[C@@H]2CC[C@H]1N2C(=O)NCCS(C)=O (some centres not stated)
→ / | -7.7 | 14.8 | 2.3 | -2.8 | 3.8 | -11.1 | 6.6 | -11.1 | 2.5
27. O=c1[nH]c(=S)n(-c2ccc(Cl)cc2)c(O)c1C=Nc1ccc(N2CCOCC2)cc1
→ 5.4 | -5.2 | 8.4 | 0.7 | 0.1 | 4.3 | -2.8 | 8.6 | 6.3 | 2.4
28. CN1C(=O)C2C[C@@]3(Br)c4ccccc4N(OOSc4ccccc4)[C@H]3N2C(=O)[C@@H]1Cc1ccccc1 (some centres not stated)
→ -31.2 | -7.9 | / | 2.2 | / | 3.2 | 1.1 | / | -1.8 | -1.4
29. CCOc1ccc(NC2=NCCCS2)cc1
→ -7.9 | 0.0 | 4.6 | 1.0 | -3.6 | 0.8 | 12.8 | 2.4 | -2.4 | -3.1
30. O=[N+]([O-])c1ccc(Cl)c(Cl)c1Cl
→ 17.2 | / | 9.3 | -0.5 | 0.4 | 1.9 | / | 5.2 | -3.7 | 23.5*
31. O=C(NC12CC3CC(CC(C3)C1)C2)OC1CN2CCC1CC2 (configuration not stated)
→ 1.7 | -4.4 | 5.9 | 0.4 | -2.3 | -5.4 | 14.6 | -1.1 | -3.1 | 3.9
32. CCCCn1c(O)c(C(=O)/C=C/c2c[nH]c3ccccc23)c(=O)[nH]c1=O
→ / | -3.0 | / | -0.1 | / | -193.9 | -13.7 | / | / | 1.7
33. Cc1c(C(=O)O)cc(-c2ccccc2)n1Cc1ccccc1
→ 9.5 | 6.2 | -66.0 | 1.8 | -22.9 | 9.7 | -5.5 | -47.2 | -0.9 | 2.1
34. CCC12CN3CCN(CC(C3)/C1=N\O)C2
→ -2.8 | 1.9 | / | 0.1 | / | -0.2 | -1.2 | / | -1.7 | 2.3
35. CCOC(=O)C1(CCOc2ccccc2)CCN(Cc2ccccc2OC)CC1
→ / | -8.2 | -17.5 | 0.5 | -0.6 | 2.5 | 28.2 | -20.8 | / | -2.5
36. N#CCP(=S)(c1ccccc1)c1ccccc1
→ -2.7 | -0.3 | 8.8 | -0.5 | -0.1 | 1.2 | 0.7 | 3.8 | -3.9 | 1.3
37. O=c1cccc2n1CC1CC2CN(Cc2ccc3c(c2)OCO3)C1 (configuration not stated)
→ -11.3 | -3.5 | / | 0.4 | / | 2.5 | 4.1 | / | -1.1 | 0.0
38. C[N+]1(C)[C@@H]2CC(OC(=O)[C@H](CO)c3ccccc3)C[C@H]1[C@@H]1O[C@@H]12 (some centres not stated)
→ 0.9 | / | / | -0.1 | / | -10.3&4.6 | -10.0 | / | -6.0 | -14.7&-3.0
39. CCOc1ccc2oc(C(=O)NN3C(C)CCCC3C)c(C)c2c1 (configuration not stated)
→ / | 57.4 | -3.0 | 1.2 | 0.5 | -2.5 | 1.7 | 8.6 | -11.4 | -0.5
40. CC(C)C(=O)c1cn(Cc2ccccc2C#N)c2ccccc12
→ -3.0 | -6.7 | / | 0.0 | / | -4.2 | 0.0 | / | -2.5 | 4.4
41. C=CCN1C(=O)C2(C(C(=O)OCC)=C(N)Oc3ccccc32)c2c1c1ccccc1oc2=O (configuration not stated)
→ -6.7 | -6.4 | / | -0.4 | / | -3.6 | 0.9 | / | / | 0.4
42. Oc1c(Br)cc(Br)cc1Br
→ -3.6 | / | -12.6* | 0.3 | 0.3* | -2.9 | / | -21.4* | -1.3 | -33.6
43. CCC(CC)N1CCN(C(=O)Cc2ccccc2)CC1
→ / | 26.9 | / | 0.4 | / | -0.6 | 8.1 | / | -2.9 | 0.1
44. O=c1[nH]c(=S)n(-c2ccccc2F)c(O)c1C=NCc1ccco1
→ 3.7 | 12.0 | / | -0.6 | / | 2.4 | -3.4 | / | -6.1 | 2.5
45. O=c1[nH]c(=O)n(-c2ccccc2)c(O)c1N=Nc1ccc(Br)cc1
→ 9.9 | 45.0 | -8.1 | 0.4 | 2.6 | -5.2 | -25.8 | -16.7 | 3.0 | 1.4
46. Cc1csc(NC(=O)C(Cl)c2ccccc2)n1 (configuration not stated) (tested in a mixture with another compound)
→ 51.5 | 9.7 | 2.1 | -1.0 | 3.5 | -4.8 | -14.5 | 14.2 | -1.6 | -1.3
47. O=C(C(=O)N1CCOCC1)c1cn(Cc2ccc(F)cc2)c2ccccc12
→ -5.9 | -4.1 | -3.7 | 0.6 | -0.4 | 6.4 | 2.8 | 0.9 | -2.5 | 2.1
48. COC(=O)C1=C(c2ccc(OC)c(OC)c2)C[C@@H]2CC[C@H]1N2C(=O)NCCCOC(C)C
→ -0.3 | / | 16.3 | -0.2 | -3.9 | 1.7 | / | -0.8 | -1.5 | -1.4
49. COC(=O)C1=C(c2ccc(OC(F)(F)F)cc2)C[C@@H]2CC[C@H]1N2C(=O)NC1CC1
→ 3.1 | / | -2.7 | 0.9 | -0.3 | -0.8 | / | -8.2 | -0.2 | 3.3
50. O=C(N/N=C/c1c(O)n(CCc2ccc(F)cc2)c(=O)[nH]c1=O)c1ccccc1
→ -9.7 | -15.5 | / | -1.3 | / | 13.1 | -10.6 | / | -4.0 | -6.0
51. CN1C(=O)NC(=O)/C(=C/c2ccc([N+](=O)[O-])s2)C1=O
→ -1.9 | -5.5 | / | 1.5 | / | -53.2 | 41.6 | / | 1.7 | 4.1
52. COC(=O)C1=C(c2cc3ccccc3o2)C[C@@H]2CC[C@H]1N2C(=O)N1CCC(O)CC1
→ / | -9.5 | -11.5 | -0.3 | 0.0 | -0.8 | 1.9 | -2.3 | -7.6 | 2.8

Compound activity as filed in PubChem.
